# LANA-nucl inh – inhibitors of KSHV LANA binding to nucleosomes. FITC-LANA1-23 / chicken nucleosome fluorescence polarization; active compounds read low. hit rate 0.3% among 51,000. z-score (concentration not given with the values);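 active = both repeat wells score below -2 in polarization z-score versus plate sample wells, excluding overly bright wells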;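 also: 100 nL library stock added to about 30 µL; numbers are from one replicate; some results filed as inactive read as strong as hits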
#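 Test system: purified chicken nucleosomes with FITC-labelled LANA N-terminal peptide (1-23); Input: 240 nM purified chicken nucleosomes (480 nM peptide binding sites), final; Medium: TEN-BT buffer, pH 7.5; Timing: 10–45 min, room temperature; Technique: fluorescence polarization, 480 nm excitation, 535 nm parallel and perpendicular emission; Replication: duplicates.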
# BasE inh – inhibitors of Acinetobacter baumannii siderophore enzyme BasE; purified BasE, fluorescence polarization binding displacement; inhibition, % (no concentration beside the values); hit rate 0.1% among 84,000;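 active = both replicates above 25% with normal brightness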;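 also: 0% = negative plate control signal and 100% = positive plate control signal; stock transfer was 100 nL into about 30 µL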
# * = called active by the depositor; x = no result given.
# Order of results – LANA-nucl inh	BasE inh
1	Fc1ccccc1Cn1c(C2CC2)nc2ccccc21
  -1	-0.5
2	O=C1CCc2cc(S(=O)(=O)N3CCN(c4cccc(Cl)c4)CC3)cc3c2N1CCC3
  0.56	-1.8
3	Cc1ccc(N2C(=O)/C(=C/c3cc(Br)c(N4CCOCC4)o3)C(=O)NC2=S)c(C)c1
  2.3	-3.0
4	CCOC(=O)c1c(C)oc2c1c(C=NCCO)c(O)c1ccccc12
  x	2.7
5	COc1ccc(C2CC(=O)C3=C(C2)NC(=O)CC3c2ccc3c(c2)OCO3)cc1 (stereo not given)
  0.042	-0.6
6	Cc1cc(C(=O)CONC(=O)C23CC4CC(CC(C4)C2)C3)c(C)n1C
  x	-2.8
7	CSc1nc(NCCO)c(C#N)c(-c2ccc(C(C)(C)C)cc2)n1
  -0.73	-3.8
8	N#Cc1cnn(C(=O)c2cccc(S(=O)(=O)Nc3ccc(Cl)cc3)c2)c1N
  x	-5.1
9	Oc1ccc(-c2nc(-c3ccc(F)cc3)c(-c3ccncc3)[nH]2)cc1
  -0.12	3.0
10	CNC(=O)c1c[nH]c2ccc(S(=O)(=O)Nc3ccccc3F)cc2c1=O
  0.34	3.1

# In the list so far, these contain fluorine:
# Order of results – LANA-nucl inh	BasE inh
1	Fc1ccccc1Cn1c(C2CC2)nc2ccccc21
  -1	-0.5
9	Oc1ccc(-c2nc(-c3ccc(F)cc3)c(-c3ccncc3)[nH]2)cc1
  -0.12	3.0
10	CNC(=O)c1c[nH]c2ccc(S(=O)(=O)Nc3ccccc3F)cc2c1=O
  0.34	3.1

# The listing picks up; the seven compounds before the break are reprinted first.
# Order of results – LANA-nucl inh	BasE inh
4	CCOC(=O)c1c(C)oc2c1c(C=NCCO)c(O)c1ccccc12
  x	2.7
5	COc1ccc(C2CC(=O)C3=C(C2)NC(=O)CC3c2ccc3c(c2)OCO3)cc1 (stereo not given)
  0.042	-0.6
6	Cc1cc(C(=O)CONC(=O)C23CC4CC(CC(C4)C2)C3)c(C)n1C
  x	-2.8
7	CSc1nc(NCCO)c(C#N)c(-c2ccc(C(C)(C)C)cc2)n1
  -0.73	-3.8
8	N#Cc1cnn(C(=O)c2cccc(S(=O)(=O)Nc3ccc(Cl)cc3)c2)c1N
  x	-5.1
9	Oc1ccc(-c2nc(-c3ccc(F)cc3)c(-c3ccncc3)[nH]2)cc1
  -0.12	3.0
10	CNC(=O)c1c[nH]c2ccc(S(=O)(=O)Nc3ccccc3F)cc2c1=O
  0.34	3.1
11	O=C1CN=C(Nc2ccccc2)N1c1ccccc1
  -0.076	1.2
12	N#CCC(O)(c1nc2ccccc2s1)C(F)(F)F (stereo not given)
  x	2.1
13	CC1CC(C)CN(C(=O)COC(=O)c2ccc(O)cc2)C1 (stereo not given)
  x	-5.2
14	Cc1ccc(NCn2c(=O)sc3ccccc32)cc1
  -1.4	0.2
15	O=c1c2ccccc2nc(SCc2ccccc2)n1Cc1ccco1
  -0.077	-0.2
16	COC(=O)c1ccc2c(c1)C(=O)c1ccccc1CO2
  0.16	x
17	O=C(Nc1ccccc1)c1cccc(N2CCCC2=O)c1
  -0.28	-2.3
18	CCOC(=O)c1c(C)c2c(n1C)CCC/C2=N\O
  x	0.8
19	CC1(C)CC(=O)C(=Cc2cn(-c3ccccc3)nc2-c2cccs2)C(=O)C1
  0.14	1.8
20	COc1cc2[nH]c(=S)n(CCc3cnc[nH]3)c(=O)c2cc1OC
  0.53	-0.4
21	Cc1ccc(CN2CNc3c(-c4ccccc4F)c(C)nn3C2)cc1
  -0.44	0.3
22	C=CCNC(=O)C1CC(=O)N(c2ccc(OCC(=O)NCc3ccccc3)cc2)C1 (stereo not given)
  0.33	-1.3
23	Cc1onc(-c2ccccc2)c1NC(=O)N(C)CCc1ccccn1
  -1.5	-1.2
24	Cc1nnc(NC(=O)CSc2nnc(CNC(=O)c3ccccc3F)n2C)s1
  1.7	-2.6
25	O=C(/C=C/c1ccc2c(c1)OCCCO2)N1CCN(C2CCS(=O)(=O)C2)CC1 (stereo not given)
  x	0.2
26	CCOC(=O)c1c(NC(=S)Nc2ccc(OC)cc2)sc2c1CC(C(C)C)OC2 (stereo not given)
  x	1.5
27	O/N=C/c1nc2cc(Cl)ccc2o1
  x	3.8
28	FC(F)(F)Oc1ccc(C2c3ccsc3CCN2Cc2ccc3c(c2)CCO3)cc1 (stereo not given)
  -0.43	x
29	O=C(Cn1ncn2c(cc3ccccc32)c1=O)NCc1ccccc1
  -0.13	-0.8
30	CC(C)(C)c1ccc(OCCCC(=O)Oc2ccc(-c3nnco3)cc2)cc1
  x	0.1
31	CCC(C)NCc1nc(N)nc(Nc2ccccc2C)n1 (stereo not given)
  x	0.3
32	CCOc1ncccc1C(=O)O
  0.33	-1.3
33	CN(C)c1ccc(/C=N/N)cc1
  x	3.2
34	Cc1cccc(NC(=O)CCN2C(=O)/C(=C\c3ccccc3)SC2=S)c1
  x	0.7
35	NC(=O)c1ccc(NC(=O)c2cc3ccccc3oc2=O)cc1
  -0.05	0.5
36	Cn1c(=O)c2cc(N)cnc2n(C)c1=O
  x	5.7
37	C=CCn1ccc2c(OCC(N)=O)cccc2c1=O
  0.045	-0.9
38	COC(=O)c1c(C)[nH]c(=O)[nH]c1=S
  x	2.4
39	CCOc1ccc(Br)cc1S(=O)(=O)N(C)C1CCCCC1
  x	1.3
40	COC(=O)CC1C(=O)NCCN1C(=O)C1c2ccccc2Oc2ccccc21 (stereo not given)
  x	1.1
41	CC(Oc1ccccc1)C(=O)N/N=C/c1ccccc1 (stereo not given)
  x	1.7
42	CCc1ccc(Nc2nc(C)cc(C)c2C(N)=O)cc1
  0.58	-0.4
43	O=C(Cc1c(Cl)cccc1Cl)NC1CCC(O)CC1 (stereo not given)
  x	1.7
44	COC(=O)CSc1nc2ccccc2n1CC(=O)N1C(C)CCCC1C (stereo not given)
  0.47	0.8
45	CC(=O)CCCCn1cnc2c1c(=O)n(C)c(=O)n2C
  0.32	x
46	Cc1ccc(Sc2nn(C)c(=O)n(C)c2=O)cc1C
  x	0.9
47	CO[C@@H]1O[C@H](COC(=O)c2ccccc2)[C@H](OC(=O)c2ccccc2)[C@H]1OC(=O)c1ccccc1
  x	0.1
48	Cn1c2ccccc2c2nnc(SCC(=O)NC3=NN=C(c4ccccc4)CS3)nc21
  -0.77	2.3
49	O=C(O)CSCc1nc2ccccc2c(=O)[nH]1
  -0.99	4.6
50	NC(=O)c1cc2c(n(-c3ccccc3)c1=O)CCCC2=O
  x	2.9
51	O=C(NC(=O)c1ccccc1C(F)(F)F)NN1CCCCC1
  x	0.8
52	C=CCNC(=S)N1N=C2c3ccccc3CCC2C1c1ccccc1Cl (stereo not given)
  x	0.3
53	CN(C(=O)COC(=O)c1ccc(Cl)c(S(N)(=O)=O)c1)C1CCS(=O)(=O)C1 (stereo not given)
  x	2.6
54	Nc1cc(=O)[nH]c(SC(C(=O)N2CCCC2)c2ccccc2)n1 (stereo not given)
  x	-0.4
55	CC1(C)C(=S)Nc2ccccc21
  -0.035	-1.2
56	O=C(COc1coc(CN2CCc3ccccc32)cc1=O)OCc1ccccc1
  1.2	0.7
57	O=C(CCn1c(=O)c2cccn2c2ccc(F)cc21)NCCc1cccs1
  -0.36	1.9
58	O=C(NC(NCc1ccccn1)(C(F)(F)F)C(F)(F)F)c1cccnc1
  x	1.0
59	O=c1c2cccnc2ncn1CCCN1CCOCC1
  -0.21	-0.2
60	COc1ccc(NC(=O)NC(=O)C(F)(F)F)cc1
  -0.56	0.0

# Remaining list, next part:
# Order of results – LANA-nucl inh	BasE inh
61	CC[N+](CC)(CC)CCC(O)(c1ccccc1)C1CCCCC1 (stereo not given)
  1.2	-3.5
62	COc1ccc(CN(Cc2ccco2)S(=O)(=O)c2ccc(S(=O)(=O)N3CCCC3)cc2)cc1
  0.36	-2.3
63	Cc1ccc(C2=NN(CC(=O)N3CCCCC3)C(=O)CC2)cc1
  0.18	-2.4
64	CN(C)S(=O)(=O)c1ccc(C(=O)NCC(=O)NN)cc1
  -0.014	0.6
65	CC(C)c1nnc(NC(=O)c2ccccc2)s1
  -0.57	-1.1
66	COc1ccc(C)cc1-n1nnnc1SCC(=O)Nc1ccccc1C(=O)NC1CC1
  x	-2.6
67	O=C(CSc1ccc2c(c1)OCCO2)NC1CCS(=O)(=O)C1 (stereo not given)
  x	2.3
68	CCOc1ccc(Nc2cccc(F)c2C#N)cc1
  x	2.2
69	CN(C)c1ccc(/C=C2\CCCC3C2=NN(C(=S)NC(=O)c2ccco2)C3c2ccc(N(C)C)cc2)cc1 (stereo not given)
  x	3.9
70	CC(C)(C)NC(=S)NNc1c(Cl)cncc1Cl
  -0.29	1.1
71	CCOC(=O)c1c(C)noc1N
  0.57	3.0
72	Cc1sc(NC(=O)CN2CCN(c3ccccc3)CC2)c(C#N)c1C
  2.5	x
73	CCn1c(O)c(N=NC(N)=S)c2ccccc21
  x	0.6
74	CC12CC3(C)CC(N)(C1)CC(C(=O)O)(C2)C3
  -0.24	3.9
75	N#C/C=C/N1CCN(C/C=C/c2ccccc2)CC1
  x	0.1
76	CCCN1CCN(c2cc(-c3ccccc3)nc3cc(-c4cccc(F)c4)nn23)CC1
  -0.28	0.1
77	N#Cc1ccccc1Sc1ccccc1C(=O)N1CCN(CC(=O)N2CCCC2)CC1
  x	-4.8
78	Cc1onc(-c2ccccc2)c1-c1csc(Nc2ccccc2Cl)n1
  x	1.7
79	O=C(Oc1ccc(Cl)c(Cl)c1)c1ccccc1F
  x	-0.3
80	CCC(=O)Oc1cc2c(C(=O)OC(C)C)c(C)oc2cc1Br
  -0.48	-0.7
81	O=C(O)C1CN(Cc2ccccc2)C1
  0.074	-0.5
82	CCSc1nnc(NC(=O)C2CC(=O)N(c3ccccc3OC)C2)s1 (stereo not given)
  x	1.7
83	CN(C)C(=S)NC(C)(C)C
  -0.29	0.7
84	Cn1c(C(=O)OCC(=O)NCc2cccs2)cc2sccc21
  -0.95	1.1
85	O=C1c2c(O)cc(O)cc2O[C@H](c2ccc(O)c(O)c2)[C@H]1O
  0.013	x
86	O=C(COC(=O)c1ccco1)Nc1cccc2ccccc12
  0.057	1.9
87	CCOC(=O)c1c(C)[nH]c(C)c1C(=O)COC(=O)C1CC2CCCC(C1)C2=O (stereo not given)
  x	0.0
88	Cc1cc(NC(=O)COc2coc(CN3CCN(c4ccc(F)cc4)CC3)cc2=O)no1
  -0.11	2.9
89	O=C(O)Cc1csc(Nc2ccccc2F)n1
  -0.51	-0.5
90	COC(=O)CSc1cc(C)nc(SC)n1
  0.32	2.7
91	CCn1c(=O)cc(SCC(=O)NCCCN2CCN(c3ccc(F)cc3)CC2)c2ccccc21
  -1.8	-2.4
92	COc1ccc(C2CCCCCN2C(=O)CCn2c(=O)oc3ccccc32)cc1 (stereo not given)
  x	-8.9
93	CN(CC(=O)Nc1ccc(F)c(F)c1F)C(=O)c1cccnc1N1CCCC1
  x	-1.9
94	COc1ccc(C)c2sc(=NC(=O)C(C)(C)C)n(C)c12
  -0.8	-0.6
95	COc1ccc(C)c2sc(NN)nc12
  -0.18	3.8
96	OC(CNCC1(N2CCCCC2)CCCCC1)COCc1ccccc1F (stereo not given)
  x	0.3
97	COc1ccc(C(=O)C(C)Sc2nnc(-c3ccccc3OC)n2C)cc1 (stereo not given)
  x	-4.0
98	Cc1ccc(CC(=S)N2CCOCC2)cc1
  -0.056	-0.8
99	OC(CN=Cc1ccccc1)c1ccccc1 (stereo not given)
  0.48	2.6
100	O=S(=O)(N1CCCCC1)N1CCNCC1
  0.19	1.2
101	NC(=O)C1CCN(C2=NC(=O)/C(=C/c3cn(-c4ccccc4)nc3-c3cccs3)S2)CC1
  -0.48	-2.9
102	COc1ccc(-c2[nH]c3c(=O)n(C)c(=O)n(C)c3c2O)cc1OC
  -0.06	-0.9
103	CCn1c(=O)cc(SCC(=O)Nc2ccc(F)cc2)c2ccccc21
  -1.5	2.0
104	Cc1cccc(C2=NC(C(F)(F)F)(C(F)(F)F)N=C(c3ccco3)O2)c1
  -0.83	-1.6
105	Cc1ccc(NC(=O)N2CCCCC2C)cc1Cl (stereo not given)
  -2	0.5
106	Nc1nnnn1NCc1ccc(-c2ccc(F)cc2)o1
  -0.82	0.9
107	C#CCOc1nc(OCC#C)nc(N(c2ccccc2)c2ccccc2)n1
  0.23	0.5
108	CCOC(=O)CC1C(=O)C=Nc2ccccc21 (stereo not given)
  0.41	x
109	COc1cccc(NC(=O)N(Cc2nc3ccccc3c(=O)[nH]2)C2CCCCC2)c1
  0.89	8.1
110	O=C(Nc1ccccc1)N1CCCCC1
  -1.2	2.0

# (more compounds)
# Order of results – LANA-nucl inh	BasE inh
111	O=C(O)CCC(=O)Nc1ccc(O)c(C(=O)O)c1
  x	-1.7
112	CC1=C(C#N)C(c2c[nH]c3ccccc23)C2=C(CCCC2=O)N1 (stereo not given)
  0.29	0.3
113	Cc1ccc(-c2nn(-c3ccccc3)cc2CN(Cc2ccccc2)C(=O)c2ccco2)o1
  -0.52	1.7
114	O=S(=O)(c1cccc(S(=O)(=O)N2CCCCC2)c1)c1cccc(S(=O)(=O)N2CCCCC2)c1
  -1.6	0.5
115	Cc1nc(N)nc(C(F)(F)F)c1Br
  -0.2	-2.0
116	CO[C@H]1/C=C/O[C@@]2(C)Oc3c(C)c(O)c4c(O)c(c5c(nc6cc(C)ccn65)c4c3C2=O)NC(=O)/C(C)=C\C=C\[C@H](C)[C@H](O)[C@@H](C)C(O)[C@@H](C)[C@H](OC(C)=O)[C@@H]1C (stereo not given in full)
  -0.3	x
117	Cc1nc2ccccc2c(=O)n1-c1ccc(F)c(NC(=O)c2ccco2)c1
  0.42	-1.0
118	COc1ccc(CN(C)c2nc(C(F)(F)F)nc3ccccc23)c(OC)c1
  x	0.4
119	O=C1CCCCCN1Cc1nnc(SCCN2C(=O)c3ccccc3C2=O)o1
  x	0.9
120	S=C(Nc1ccccc1)N1CCNC2NCCN(C(=S)Nc3ccccc3)C21 (stereo not given)
  0.31	3.5

# Some of the compounds tested, so the mix of outcomes need not match the whole.
